Assay outcomes deposited in PubChem by several laboratories.
RecA intein inh – blocks M. tuberculosis RecA intein splicing; P9WHJ3; cell-free RecA intein splicing, fluorescence; inhibition, %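 (about 9 µM by stock and volumes)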; 0.75% of 290,000 active; in the data active = inhibition above about 30%; inconclusive = no clear call, values can overlap the other calls;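 also: 0% = vehicle wells and 100% = reference inhibitor control wells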
Target sequence (P9WHJ3 whole entry, looked up): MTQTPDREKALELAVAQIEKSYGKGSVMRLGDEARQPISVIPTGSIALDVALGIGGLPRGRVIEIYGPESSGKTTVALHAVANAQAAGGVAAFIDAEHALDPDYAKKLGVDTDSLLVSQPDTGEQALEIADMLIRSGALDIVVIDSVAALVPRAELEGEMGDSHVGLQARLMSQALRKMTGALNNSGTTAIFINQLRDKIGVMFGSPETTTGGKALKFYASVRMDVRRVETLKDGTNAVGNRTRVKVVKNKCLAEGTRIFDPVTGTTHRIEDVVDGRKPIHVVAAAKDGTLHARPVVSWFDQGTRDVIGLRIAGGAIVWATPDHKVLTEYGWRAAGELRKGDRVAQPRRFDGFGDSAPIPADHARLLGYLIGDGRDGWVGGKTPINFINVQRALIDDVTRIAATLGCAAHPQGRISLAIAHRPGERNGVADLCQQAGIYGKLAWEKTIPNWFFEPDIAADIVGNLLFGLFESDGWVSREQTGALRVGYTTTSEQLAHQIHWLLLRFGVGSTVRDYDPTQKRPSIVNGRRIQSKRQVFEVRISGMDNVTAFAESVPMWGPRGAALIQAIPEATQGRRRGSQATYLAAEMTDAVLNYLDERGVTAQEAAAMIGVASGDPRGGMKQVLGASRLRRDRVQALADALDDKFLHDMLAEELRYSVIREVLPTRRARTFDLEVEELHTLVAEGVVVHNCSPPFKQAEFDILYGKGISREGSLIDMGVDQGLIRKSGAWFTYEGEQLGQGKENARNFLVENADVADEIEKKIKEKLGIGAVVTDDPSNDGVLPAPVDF
Mtb betalactam – beta-lactam sensitization of Mtb H37Rv. M. tuberculosis H37Rv growth with meropenem, percent inhibition; hits of this screen are not shown here. inhibition, % at 25 µM. 0.27% of 330,000 active;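 active = about 74% or more and at least 40 points above the plate without the antibiotic, then above 30% in a dose series; inconclusive = first-round hits that could not be retested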;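 also: growth measured after seven days incubation then overnight dye step; 0% = bacteria only wells and 100% = bacteria with antibiotic; twin plates without the antibiotic show which effects depend on it; some results filed as inactive read as strong as hits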
YopH inh – YopH (Yersinia) phosphatase inhibition; 0.16% of 140,000 active; fluorescence Ex485/Em525; inhibition, %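 (about 10 µM by stock and volumes)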;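 active = inhibition of 50% or more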;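 also: controls were vehicle for no effect and minimum signal wells for full effect; inactives centre near -20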
Mtb H37Rv – M. tuberculosis H37Rv growth inhibitors, H37Rv strain (AID 1626); inhibition, % at 10 µM, or IC50 in µM where a hit was titrated; 0.95% of 220,000 active; M. tuberculosis H37Rv growth inhibition; higher % means a stronger effect;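 active = confirmed in a dose series; inconclusive = inhibition above 80% but not taken into the dose series; inactive = below 80% or under 30% at every dose of the series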;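 also: bacteria incubated seven days before Alamar blue readout; 0% = bacteria only wells and 100% = bacteria with antibiotic wells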
Arbovirus inh – blocks arbovirus infection; 0.37% of 200,000 active; inhibition, % at 10 µM; arbovirus infection cell-based antiviral screen;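 active = inhibition from about 30%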;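 also: bluetongue infection of BSR cells; cell survival read as ATP light after 72 h; 0% = infected wells without compound and 100% = uninfected wells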
Starred values were filed as active, the others as inactive; ? = inconclusive; nt = not tested or not shown.

SMILES | RecA intein inh | Mtb betalactam | YopH inh | Mtb H37Rv | Arbovirus inh
CCC(=O)Nc1nnc(SCC(=O)NCCc2ccc(OC)c(OC)c2)s1 | nt | 4 | nt | 12% | -1
COc1cc(CCC(=O)OCC(=O)Nc2c(C)cc(C)cc2C)cc(OC)c1OC | 0.1 | -9 | -16 | 1% | -11
O=C(COC(=O)CNS(=O)(=O)/C=C/c1ccccc1)Nc1cc(S(=O)(=O)N2CCCCC2)ccc1Cl | -0.5 | -1 | nt | -1% | -2
COc1cccc(NC(=O)CSc2ncnc3c2cnn3Cc2ccccc2)c1 | -1.6 | 13 | -3 | -11% | -10
COc1ccccc1NS(=O)(=O)c1ccc(Cl)c(NC(=O)CN2C(=O)c3ccccc3C2=O)c1 | -0.3 | -2 | -46 | 1% | -6
COc1cc(/C=C/C(=O)OCC(=O)NCc2ccccc2OC)ccc1O | -0.5 | 4 | nt | nt | nt
Cc1c(CCO)c(=O)[nH]n1C(=O)c1c(F)cccc1F | -1.7 | 1 | -21 | -1% | 9
Cc1cc(N2CCN(C)CC2)nc2ccc(NC(=O)CCC3CCCC3)cc12 | 0.1 | 0 | nt | nt | nt
COC(=O)c1ccncc1C(=O)Nc1ccc(OC)cc1 | nt | -1 | nt | -1% | 2
CCOc1ccc(NC(=O)CSc2nnc(Cc3csc(C)n3)o2)cc1 | 0.8 | 84 | nt | nt | nt
Cc1c(N=C2NC(=O)/C(=C/c3ccc(O)cc3)S2)c(=O)n(-c2ccccc2)n1C | -2.8 | 3 | -23 | 1% | -9
Cc1cccc(C(=O)OCC(=O)NNC(=O)c2cccs2)c1O | -2.6 | -1 | nt | nt | nt
CCN(CC)S(=O)(=O)c1ccc(Nc2nc3ccccc3n3nnnc23)cc1 | -3.5 | 56 | -26 | -5% | -6
Cc1ccc(NC(=O)n2ncc3c(C)cccc32)cc1F | -0.5 | 10 | nt | nt | nt
COc1ccc(C2C(C(=O)OCC(=O)N3CCCCC3)CCC(=O)N2c2ccc(OC)cc2)cc1 (configuration not stated) | 0.9 | -2 | -2 | -16% | 1
COc1cccc(CN2CCN(C(=O)c3cc(-c4ccccn4)nc4ccc(Cl)cc34)CC2)c1 | 3.1 | 15 | nt | 22% | -20
COc1ccc(-c2[nH]ncc2CNC(C)Cc2ccsc2)c(F)c1 (configuration not stated) | -3.3 | -1 | nt | -1% | -13
O=S(=O)(NCC1CCCO1)c1ccc(S(=O)(=O)N2CCc3ccccc3C2)cc1 (configuration not stated) | 0.9 | 4 | -9 | -1% | 6
O=C(NCCCNC(=O)c1ccc(-c2cccc(Cl)c2)o1)c1cnccn1 | 4.3 | 8 | nt | nt | nt
c1ccc(Nc2nc(-c3ccccc3)ns2)cc1 | 2.4 | -2 | nt | nt | nt
CCOc1ccc(NC(=O)C2CCN(C(=O)N3CCOc4ccccc43)CC2)cc1 | 2.4 | -4 | nt | nt | nt
Clc1ccc(SCc2cn3cccnc3n2)cc1 | 2.2 | 9 | -11 | -3% | -2
O=C(O)C1Cc2ccccc2CN1S(=O)(=O)c1ccc2ccccc2c1 (configuration not stated) | 0.8 | 1 | -35 | -1% | -2
COc1ccc(N/N=C(C)/C(=N/O)C(=O)Nc2ccccc2)cc1 | -1.8 | 4 | nt | 2% | -29
Clc1ccccc1OCCN1CCC(Cc2ccccc2)CC1 | 5.6 | 0 | nt | 27% | 10
COCCSc1ccccc1C(=O)Nc1ccccc1C#N | -2.4 | -3 | nt | 0% | -2
NCCCNc1ccc([N+](=O)[O-])cc1C(F)(F)F | 4.3 | -6 | nt | -2% | -12
CCOC(=O)c1cc(=O)c2ccc(OCC(=O)Nc3ccccc3)cc2o1 | -3.6 | 74 | nt | 3% | nt
COc1cccc2c1C(=O)c1ccc3ccccc3c1C2=O | 0.7 | -3 | -13 | 0% | -7
Clc1ccccc1-c1nnn(Cc2ccc(-c3nn[nH]n3)cc2)n1 | 0.9 | 11 | -14 | -5% | 5

Among those listed so far, three contain an NH in an aromatic ring:
SMILES | RecA intein inh | Mtb betalactam | YopH inh | Mtb H37Rv | Arbovirus inh
Cc1c(CCO)c(=O)[nH]n1C(=O)c1c(F)cccc1F | -1.7 | 1 | -21 | -1% | 9
COc1ccc(-c2[nH]ncc2CNC(C)Cc2ccsc2)c(F)c1 (configuration not stated) | -3.3 | -1 | nt | -1% | -13
Clc1ccccc1-c1nnn(Cc2ccc(-c3nn[nH]n3)cc2)n1 | 0.9 | 11 | -14 | -5% | 5

Back to the main list, repeating the 4 entries before the break.
SMILES | RecA intein inh | Mtb betalactam | YopH inh | Mtb H37Rv | Arbovirus inh
NCCCNc1ccc([N+](=O)[O-])cc1C(F)(F)F | 4.3 | -6 | nt | -2% | -12
CCOC(=O)c1cc(=O)c2ccc(OCC(=O)Nc3ccccc3)cc2o1 | -3.6 | 74 | nt | 3% | nt
COc1cccc2c1C(=O)c1ccc3ccccc3c1C2=O | 0.7 | -3 | -13 | 0% | -7
Clc1ccccc1-c1nnn(Cc2ccc(-c3nn[nH]n3)cc2)n1 | 0.9 | 11 | -14 | -5% | 5
COc1ccc(Br)cc1/C=c1\sc2nc(-c3ccco3)nn2c1=O | 2.5 | 2 | nt | -3% | nt
CC(C)=CCc1c2c(c(O)c3c(=O)c4c(oc13)-c1cc(O)c(O)cc1OC4C=C(C)C)C=CC(C)(C)O2 (configuration not stated) | -3.5 | 3 | nt | 8% | nt
Nc1nc(SCc2ccc(Cl)cc2Cl)ns1 | 6.8 | 6 | -26 | 29% | -19
Cc1cc(C)n2c(SCc3cccs3)nnc2n1 | -2.9 | -15 | -134 | 1% | -1
COC(=O)c1[nH]c2cc(C)ccc2c1NC(=O)CN1CCOCC1 | -1.1 | -5 | nt | -2% | nt
Cc1ccc(Cn2c(C(CO)Nc3nc(-c4ccc(Cl)c([N+](=O)[O-])c4)cs3)nc3ccccc32)cc1 (configuration not stated) | 6.5 | 79 | nt | 8% | nt
Cc1cccc(NC2SC(=O)NC2=O)c1 (configuration not stated) | -4.0 | -5 | nt | 0% | 7
COc1ccc(CN2CC(=O)N(c3cccc(Cl)c3)C2=S)cc1OC | -1.1 | 4 | nt | nt | nt
CN(C)S(=O)(=O)c1ccc(C(=O)Oc2coc(CSc3ncccn3)cc2=O)cc1 | 7.4 | 4 | nt | 2% | -4
CN(CCc1cn[nH]c1)C(=O)CC1C(=O)NCCN1Cc1ccccc1C(F)(F)F (configuration not stated) | 0.7 | 3 | nt | -1% | -1
CCCC(=O)N1CCN(c2nc3ccc(Br)cc3s2)CC1 | 1.7 | 8 | nt | nt | nt
CC(C(=O)Nc1ccc(C#N)cc1)N(C)CC(=O)Nc1ccccc1Br (configuration not stated) | -2.9 | -4 | nt | -5% | 13
CC1(C)CC(=O)C(CC(=O)Nc2ccc(S(N)(=O)=O)cc2)=C(O)C1 | 0.0 | -21 | 4 | 13% | 3
CC(=O)Nc1cc(C(=O)NCc2ccco2)ccc1Sc1ccc(Cl)cc1 | 1.7 | -3 | -42 | -3% | -6
COCCNC(=O)Cc1ccc(F)cc1 | 1.4 | 3 | -20 | -6% | -4
NS(=O)(=O)c1cc(C(=O)N2CCNC(=O)C2)ccc1Cl | -2.2 | 1 | nt | nt | nt
COc1ccc(CNC(=O)C/C(C)=N/NC(=O)c2ccccc2OC)cc1 | -1.6 | -1 | nt | nt | nt
CN(C(=O)COC(=O)c1ccccc1OCc1ccc(Cl)cc1)c1c(N)n(Cc2ccccc2)c(=O)[nH]c1=O | -0.8 | -4 | nt | nt | nt
CCn1cnc2c(cnn2-c2ccccc2)c1=O | -3.7 | 6 | -4 | 10% | -3
CCOC(=O)N1CCN(c2ccc(C(C)=O)cc2F)CC1C (configuration not stated) | 0.4 | 2 | nt | 4% | 11
COc1cccc(-n2cnc(=O)c3cccnc32)c1 | 1.4 | -1 | -9 | 0% | 10
FC(F)(F)c1nnc(-c2ccccc2)nc1Sc1ccc(Cl)cc1 | 23 | 97 | -25 | 36% | -30
O=C(CSCC(=O)NCc1ccco1)NCc1ccco1 | -1.2 | 7 | -43 | 0% | -2
CC(=O)c1cccc(NC(=O)Cn2cnc(S(=O)(=O)N3CCc4ccccc43)c2)c1 | -1.6 | 2 | nt | nt | nt
CC(N=Cc1c(O)n(C2CC2)c(=S)[nH]c1=O)c1ccccc1 (configuration not stated) | 0.7 | 4 | nt | 3% | nt
COc1ccc(CCNC(=O)Cn2nnc3ccccc3c2=O)cc1 | -1.0 | 0 | -26 | -2% | -5
COCCN(C(=O)CNC(=O)c1cccs1)C(C(=O)NC1CCCC1)c1cccs1 (configuration not stated) | -0.8 | -1 | -36 | 3% | 0
O=C(NCCN1C(=O)S/C(=C\c2cccnc2)C1=O)C1CC(=O)N(Cc2ccco2)C1 (configuration not stated) | nt | -3 | nt | 3% | 6
CCOC(=O)N1CCC(NC(=O)CCc2c(C)nc3nc(C)nn3c2C)CC1 | nt | -5 | -17 | nt | 11
COc1ccc(-c2nc(CS(=O)CC(=O)NC3CCCCC3)c(C)o2)cc1 (configuration not stated) | 1.4 | -8 | nt | nt | nt
Cc1cccc(C(=O)NNC(=O)CCn2nnc3ccccc32)c1 | -4.3 | 0 | nt | 0% | 0
Cc1noc(C)c1COC(=O)c1ccccc1NC(=O)Cc1ccccc1 | 1.3 | 11 | -27 | -2% | -3
CCOCC(=O)Nc1ccc(Br)c(C)c1 | -2.1 | 64 | nt | 9.8µM* | -2
Cc1ccc(OCc2cc(C(=O)NC(C)Cc3cccc(C)n3)no2)cn1 (configuration not stated) | -5.9 | 0 | nt | nt | nt
Cc1ccccc1C(=O)c1cccn1CC(=O)NCC1CCCO1 (configuration not stated) | -0.4 | 1 | 5 | -4% | 1
COCCC(=O)N1CCC(Oc2ccc(C(=O)NC3CCOC(C)(C)C3)cc2)CC1 (configuration not stated) | 0.7 | 2 | nt | nt | nt
COc1ccc([N+](=O)[O-])cc1NC1CCCCC1 | 9.3 | 3 | -35 | -4% | 8
O=C(Nc1ccc(N2CCCC2)cc1)c1cccc(Cl)c1 | 0.2 | -2 | nt | nt | nt
CC1=C(C(=O)OCc2ccccc2)C(c2ccc(C(C)(C)C)cc2)NC(=O)N1CCCCCC(=O)O (configuration not stated) | 11 | 6 | -10 | -2% | 4
NS(=O)(=O)c1ccc(CCNC(=O)C2Cc3ccccc3CN2C(=O)c2ccco2)cc1 (configuration not stated) | -4.6 | ? | -4 | -5% | 1
CCOc1ccc(C(NC(=O)CC)c2c(O)ccc3ccccc23)cc1 (configuration not stated) | 0.9 | -1 | nt | nt | nt
Cc1ccc(C(=O)Nc2ccc(Br)cc2)cc1S(=O)(=O)Nc1ccccn1 | 0.3 | 8 | -27 | -3% | -14
CCCCCc1cc(=O)oc2c(C(CCN3CCCC(C)C3)c3cc(OC)c(OC)c(OC)c3)c(OC)cc(OC)c12 (configuration not stated) | 29 | 100 | nt | 7.6µM* | nt
Cc1ccc(-n2c(CSc3nc(C)cc(C)n3)n[nH]c2=S)cc1 | 0.3 | -2 | nt | -6% | 2
N#CC1=C(N)NC(SCC(=O)c2ccccc2)=C(C#N)C12CCCC2 | 4.5 | 92 | -22 | 7.7µM* | -11
O=C(/C=C/c1ccc2c(c1)OCO2)Nc1cccnc1 | -2.3 | 4 | nt | 9% | -27
C=CCNc1nc(-c2c(C)nc3ncccn23)cs1 | 0.1 | 4 | nt | nt | nt
CNS(=O)(=O)c1ccc(C)cc1 | -0.1 | -4 | 2 | 3% | 4
COc1ccc2[nH]c(=O)c(C(c3nnnn3C3CCCCC3)N3CCN(C)CC3)cc2c1 (configuration not stated) | nt | -11 | -18 | 1% | 6
O=C(COC(=O)c1cccc(Br)c1)NCCc1ccccc1 | 1.2 | 2 | -2 | 8% | 5
O=C(CSc1nnc(COc2ccccc2)o1)N1CCOCC1 | -5.8 | 3 | nt | 0% | -9
COc1ccc(/C=C/C(=O)OCC(=O)Nc2cccc(Oc3ccccc3)c2)c(OC)c1 | 0.0 | 7 | -25 | 2% | 5
Nc1cc(S(=O)(=O)Nc2cc(Cl)ccc2Cl)ccc1N1CCCC1 | 0.7 | -6 | nt | 4% | nt
O=[N+]([O-])c1cccc(CN2CC=C(c3ccc(F)cc3)CC2)c1 | 2.6 | -2 | nt | nt | nt
CCCc1[nH]nc2c1C(c1ccc(OC)c(Cn3nc(C)c(Br)c3C)c1)C(C#N)=C(N)O2 (configuration not stated) | 16 | -4 | -100 | -1% | -10
CCC(=O)N1CCc2cc(-c3csc(NC(=O)c4ccco4)n3)ccc21 | 0.5 | -5 | nt | nt | nt
Cc1ccc(-n2c(=O)[nH]c3c(oc4ccccc43)c2=O)cc1 | -1.7 | -5 | nt | 8% | 6
COc1ccc(CCC(=O)NNC(=O)Nc2ccc(C(C)C)cc2)cc1 | -4.1 | 4 | nt | nt | nt
O=C(NCc1ccccc1)C1=C[C@H](c2coc3ccccc3c2=O)C[C@H](OCCCCO)O1 | 2.1 | -6 | nt | -8% | -5

These rows are one share of the data; rates above refer to the full screens.
